Ecoli rRNA inh = inhibits bacterial ribosomal RNA function over humanized ribosomes; E. coli WT GFP vs humanized-ribosome RFP mutants, fluorescence, 24 h; active compounds read low; DMSO median 0, no signal -100; GFP signal change (wild-type ribosome), % (no concentration beside the values); 350,000 tested, 1.6% active; AID 720706;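 active = significant combined selectivity score with lowered wild-type GFP, culture density cut under 30%, mutant RFP and density less affected; inactive = any of these conditions unmet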; also: one replicate is shown; some compounds called inactive have numbers as strong as hits
Ecoli growth = inhibitors of Escherichia coli growth; OD600, 23 h; active compounds read low; OD600 absorbance (concentration not given with the values); 330,000 tested, 0.21% active; AID 1053175;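 active = OD600 absorbance below the run mean of sample wells minus 3.6 SD, in any replicate, cut at about 0.56 in these data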;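 also: stock transfer was 300 nL into about 60 µL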
FGF22 binding = binders of recombinant human FGF22 by thermal shift. calls only at 9.99 µM. 340,000 tested, 1.5% active. Q9HCT0. SYPRO orange fluorescence; percent of sucrose octasulfate shift, DMSO zero. AID 651658;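 active = melting point raised past a set limit in the mean and every replicate; inconclusive = no clear call; three in four hits are not shown here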
Target sequence (Q9HCT0 whole entry, looked up): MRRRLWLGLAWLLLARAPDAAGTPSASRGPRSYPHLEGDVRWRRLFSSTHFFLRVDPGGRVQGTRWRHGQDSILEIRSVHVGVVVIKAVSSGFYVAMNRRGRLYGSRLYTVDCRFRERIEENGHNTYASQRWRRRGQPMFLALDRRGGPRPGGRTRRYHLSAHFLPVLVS
Vif A3G = inhibitors of Vif binding to APOBEC3G peptide, primary screen, biochemical, TR-FRET, GST-Vif 1-94, biotin-A3G peptide, dose response retest (AID 1117319); TR-FRET GST-Vif / biotin-A3G peptide binding; higher % means a stronger effect; test concentration not given here; strong numbers were not always called active; one-dose inhibition, %; IC50 in µM for titrated hits; 260,000 tested, 0.57% active;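 active = above the screen mean plus three standard deviations and confirmed in dose response; inconclusive = results disagree or hit not tested in dose response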;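 also: Vif residues 1-94 fused to GST binding biotinylated APOBEC3G peptide 110-148; 0% = full assay without inhibitor and 100% = GST in place of GST-Vif; retest series ran down from 100 µM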
MLL AF4-AF9 inh = blocks AF4 peptide binding to human AF9; AlphaScreen, biotin-AF4 peptide binding to FLAG-AF9; inhibition, % at 10 µM; P42568; 350,000 tested, 0.47% active;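 active = every replicate reaching a set inhibition limit, whatever the replicate mean, cut at about 25% in these data; inconclusive = mean inhibition reaches that limit but some replicates miss it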;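 also: 0% = plate neutral control median and 100% = total signal loss; the record names both 10 and 1 µM as test concentration; the first replicate is given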
HNF4A DNA FP = change in binding of human HNF4 alpha to DNA | P41235 | HNF4a-FITC DNA binding, fluorescence polarization, 1 h | activity change, % at 10 µM | 360,000 tested, 0.3% active; in the data active = activity change above about 30%, passing the limit was not always enough;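 also: controls were the assay level and a saturating level of protein; the project sought stronger binding though the title names inhibitors; some compounds called inactive have numbers as strong as hits; positive values seem to mean higher polarization but the record does not say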
Target sequence (P41235 whole entry, looked up): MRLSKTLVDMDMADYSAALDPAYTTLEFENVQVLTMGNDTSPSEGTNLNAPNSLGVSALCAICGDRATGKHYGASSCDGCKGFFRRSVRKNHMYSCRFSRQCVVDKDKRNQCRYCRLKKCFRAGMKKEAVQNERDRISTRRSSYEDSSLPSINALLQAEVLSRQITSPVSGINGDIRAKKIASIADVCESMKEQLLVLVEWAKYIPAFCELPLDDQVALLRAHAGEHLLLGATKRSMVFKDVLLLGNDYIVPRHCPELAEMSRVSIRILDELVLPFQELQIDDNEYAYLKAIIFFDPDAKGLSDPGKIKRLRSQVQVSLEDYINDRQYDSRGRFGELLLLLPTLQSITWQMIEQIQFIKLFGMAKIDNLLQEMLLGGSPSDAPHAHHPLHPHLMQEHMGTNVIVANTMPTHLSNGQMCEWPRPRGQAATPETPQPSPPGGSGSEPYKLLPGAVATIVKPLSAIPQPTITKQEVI
ALR inh = inhibitors of human sulfhydryl oxidase ALR; P55789; purified ALR, DTT oxidation, H2O2 HRP-luminol luminescence; inhibition, % (test concentration not listed); 290,000 tested, 3.8% active;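 active = mean and each replicate at 75% or more; inconclusive = only one of the two met; inactive = neither met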;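 also: stock transfer was 7.5 nL into about 7.5 µL; 0% = neutral wells and 100% = wells with inactivated enzyme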
Target sequence (P55789 whole entry, looked up): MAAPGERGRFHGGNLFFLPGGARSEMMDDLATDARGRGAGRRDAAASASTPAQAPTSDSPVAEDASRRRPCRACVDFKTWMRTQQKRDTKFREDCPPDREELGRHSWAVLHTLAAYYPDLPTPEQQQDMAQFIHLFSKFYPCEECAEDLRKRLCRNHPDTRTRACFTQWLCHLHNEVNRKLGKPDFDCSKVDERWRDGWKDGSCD
Ecoli rRNA inh OD600 = further read-out of Ecoli rRNA inh, marked with its call; OD600 change, %; measured here: OD600 growth;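 optical density of the mix in the first replicate; 0 = DMSO median and -100 = no signal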
Ecoli rRNA inh RFP = second read-out of Ecoli rRNA inh, no call of its own (marks repeat the call); RFP signal change, %; measured here: RFP humanized mutant strains;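 first replicate; 0 = DMSO median and -100 = no signal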
Numbers without * were called inactive; i = inactive; ? = inconclusive; nt = no result given; + = active, no number; & = joins results of further samples. These rows are one share of the data; rates above refer to the full screens.

SMILES | Ecoli rRNA inh | Ecoli rRNA inh OD600 | Ecoli rRNA inh RFP | Ecoli growth | FGF22 binding | Vif A3G | MLL AF4-AF9 inh | HNF4A DNA FP | ALR inh
COc1ccc(CC(=O)OCC(=O)Nc2ccc3c(c2)OCCO3)cc1OC | 10 | 3 | 2.4 | 0.68 | i | ? | -30 | -2.4 | 0
O=C(c1cccc([N+](=O)[O-])c1)N1CCN(c2n[nH]c(=O)[nH]c2=O)CC1 | 14 | 6 | -0.9 | 0.72 | i | -1% | -4.3 | 2.9 | -2
CCOc1cc(N2CCOCC2)c(OCC)cc1NC(=O)COC(=O)COc1ccc(C#N)cc1 | 5 | 10 | 1.4 | 0.75 | i | nt | 0.5 | 29 | -8
O=C(CCN1CCCCC1)N[C@@H]1CC[C@H](CCn2cc(-c3ccccc3)nn2)O[C@@H]1CO | 1 | -2 | -2.0 | nt | i | nt | -0.6 | nt | nt
COc1cccc(CC2(CO)CCCN(Cc3cn(C)c4ccccc34)C2)c1 (centres undefined) | 4 | -3 | -3.5 | 0.67 | i | nt | 5.0 | 0.0 | nt
CC(=NNC(=S)N1CCN(c2ccccn2)CC1)c1ccccn1 | nt | nt | nt | nt | i | 4% | 14 | 23 | nt
COc1ccc2c3c([nH]c2c1)[C@H](CO)N(CC1CC1)CC31CN(S(=O)(=O)c2cccc(F)c2)C1 | -2 | -10 | 6.7 | nt | i | nt | -0.2 | nt | nt
CN(CC(=O)N1CCCc2c1c(=O)oc1ccc(O)cc21)Cc1ccccc1 | nt | nt | nt | 0.69 | nt | 0% | nt | 0.0 | -44
C#CCOCCOCCOCCNc1nc(N2CCN(C(=O)C([C@@H](C)CC)n3cc(C(N)COC(=O)C(F)(F)F)nn3)CC2)nc(N2CCN(C(=O)C([C@@H](C)CC)n3cc(C(N)CC(C)C)nn3)CC2)n1 (some centres undefined) | 0 | 8 | 0.5 | nt | i | nt | 2.7 | nt | 1
CCOc1ccc(Nc2ncnc3ccc([N+](=O)[O-])cc23)cc1 | -1 | 4 | -8.6 | 0.72 | nt | 14% | 0.6 | -2.2 | -29
CN(C)CC#Cc1ccc([C@H]2[C@@H](CO)N3C(=O)CN(C(=O)c4ccc(F)cc4)C[C@H]23)cc1 | 4 | 20 | -6.2 | nt | i | nt | 1.0 | nt | nt
CC(=O)OCC(=O)N1N=C(c2ccc3ccccc3c2)CC1c1ccccc1 (centres undefined) | 18 | 9 | 2.7 | 0.69 | i | -10% | 0.3 | 0.8 | -16
NC(=S)N/N=C/c1coc2ccc(F)cc2c1=O | 17 | 20 | -0.6 | nt | i | nt | 0.0 | 3.3 | -9
COC(=O)c1ccc(CSc2nc3sc(C)c(C)c3c(=O)[nH]2)cc1 | 7 | 3 | -0.6 | 0.68 | i | -5% | -0.8 | 0.0 | -6
Cc1noc(C)c1S(=O)(=O)N(C)C[C@H]1OCCCC[C@H](C)Oc2ccc(NC(=O)CCCN(C)C)cc2C(=O)N([C@H](C)CO)C[C@H]1C | 2 | 8 | 0.2 | nt | i | nt | 3.2 | nt | nt
CC1CCN(C(=O)c2[nH]cnc2C(=O)Nc2ccon2)CC1 | 0 | 2 | -2.9 | 0.64 | i | nt | 0.0 | 3.3 | -3
CC1(C)C(=O)CC[C@]2(C)C3C(=O)C=C4[C@H]5C[C@@](C)(C(=O)O)CC[C@]5(C)CC[C@]4(C)[C@]3(C)CC[C@@H]12 (some centres undefined) | 18 | 12 | -1.7 | nt | i | nt | -3.2 | 0.4 | 0
CCOc1ccc(NC(=O)CN(C)C(=O)c2c(C)nn(Cc3ccccc3Cl)c2C)cc1OCC | 0 | 2 | -0.6 | 0.68 | i | nt | 0.3 | 2.4 | nt
Oc1ccc2ccccc2c1CNc1ccc2ccccc2c1 | -58 | -77 | -18 | 0.62 | i | 3% | 4.9 | -10 | nt
Cc1cc2oc(=O)cc(CN3CCN(C/C=C/c4ccccc4)CC3)c2cc1O | nt | nt | nt | nt | nt | 1% | nt | 1.3 | 41

Reformatted with two lines to a compound: part of the list above.
Values run as follows: Ecoli rRNA inh, Ecoli rRNA inh OD600, Ecoli rRNA inh RFP, Ecoli growth, FGF22 binding, Vif A3G, MLL AF4-AF9 inh, HNF4A DNA FP, ALR inh
COc1cccc(CC2(CO)CCCN(Cc3cn(C)c4ccccc34)C2)c1 (centres undefined)
    4, -3, -3.5, 0.67, i, nt, 5.0, 0.0, nt
CC(=NNC(=S)N1CCN(c2ccccn2)CC1)c1ccccn1
    nt, nt, nt, nt, i, 4%, 14, 23, nt

Carrying on:
SMILES | Ecoli rRNA inh | Ecoli rRNA inh OD600 | Ecoli rRNA inh RFP | Ecoli growth | FGF22 binding | Vif A3G | MLL AF4-AF9 inh | HNF4A DNA FP | ALR inh
CCN(C(=O)COC(=O)CCC(=O)c1cccs1)c1c(N)n(Cc2ccccc2)c(=O)[nH]c1=O | 6 | 7 | -1.9 | 0.64 | i | 0% | -1.9 | -3.1 | 1
COc1ccc(C(CCN2CCN(c3ccccc3)CC2)c2c(O)cc(OC)cc2OC)cc1 (centres undefined) | nt | nt | nt | 0.68 | nt | nt | nt | 1.9 | -11
CC1(C(=O)O)CCCN1C(=O)c1ccccc1OC(F)(F)F (centres undefined) | -3 | -1 | -3.0 | nt | i | nt | 0.7 | -0.2 | nt
Cc1cc([N+](=O)[O-])nn1CCCC(=O)NCc1ccccc1 | nt | nt | nt | 0.69 | nt | -4% | nt | 1.3 | -69
CC(=O)N(c1ccccc1)C1SC(=O)N(c2ccccc2)C1=O (centres undefined) | 6 | 10 | 3.1 | 0.7 | i | 1% | 0.7 | -2.1 | 28
O=C1CCCN1C(=O)CCC(=O)N1CCCC1=O | nt | nt | nt | 0.72 | nt | 1% | -5.2 | 2.0 | 0
COc1ccc(CN2C(=O)CCC2(C)C(=O)NC2CCCCCC2)cc1 (centres undefined) | nt | nt | nt | 0.7 | nt | -4% | nt | 0.8 | nt
O=C(CCCn1c(=S)[nH]c2ccsc2c1=O)Nc1ccc(F)cc1 | 0 | -15 | 0.8 | nt | i | nt | -2.6 | 0.5 | nt
C[C@H](CO)N1C[C@H](C)[C@@H](CN(C)C(=O)Nc2ccccc2)Oc2cc(Br)ccc2S1(=O)=O | -3&-3 | 1&2 | -1.5&-2.1 | nt | i | 1% | -4.0&-0.3 | -0.5 | nt
C/C(=N/O)c1ccc2c(c1)OCCOCCOc1cc(/C(C)=N/O)ccc1OCCOCCO2 | nt | nt | nt | nt | nt | -5% | nt | -0.2 | 1
O=C(NC1CCCCC1)C(c1ccco1)N(C(=O)c1csnn1)c1ccccc1 (centres undefined) | nt | nt | nt | 0.64 | i | 5% | -0.3 | -1.7 | -2
CC1(C)Cc2c(cnn2-c2ccc(F)cc2)C(NC(=O)c2ccco2)C1 (centres undefined) | -1 | -2 | 2.5 | 0.74 | i | 6% | 0.7 | 0.5 | 2
O=C(COc1ccc(NS(=O)(=O)c2ccc(F)cc2)cc1)N1CCOCC1 | 5 | -3 | -7.0 | 0.67 | i | -2% | 4.0 | 2.2 | nt
CCn1ncc([C@@H]2C[C@H]3CN(Cc4cccc(Cl)c4)C(=O)[C@]34CCCN24)c1C | 10 | 3 | 3.7 | nt | i | 23% | 4.1 | 17 | -4
COc1ccc(C2=NOC(Cn3nc(C(=O)NCc4cccc(Br)c4)cc3-c3ccccc3)C2)cc1 (centres undefined) | 16 | 20 | -6.1 | 0.72 | i | nt | -2.0 | 2.1 | 3
O=C(COC(=O)c1cc(Cl)ccc1Cl)NCCN1C(=O)CSC1=O | 13 | 0 | -4.9 | 0.61 | i | -4% | -1.1 | 4.9 | -3
Cc1ccc(-c2nc3ncccc3o2)cc1NC(=S)NC(=O)c1ccco1 | -7 | 0 | -2.9 | 0.76 | i | -5% | -1.5 | 0.3 | -11
CC/C(=C(/CC)c1ccc(O)cc1)c1ccc(O)cc1 | nt | nt | nt | nt | i | -5% | -1.4 | -1.2 | 99*
O=C(O)[C@@H]1[C@@H](CO)[C@@H]2Cn3c(ccc(/C=C/c4ccccc4)c3=O)[C@@H]2N1Cc1ccc2c(c1)OCO2 | 0 | 17 | 2.5 | nt | i | nt | -9.5 | nt | nt
Cc1nc2nc(C)n(-c3ccccc3)c2s1 | nt | nt | nt | 0.73 | nt | -1% | nt | -5.8 | -5
CC(=O)N1CCC2(CC1)C(C#N)=C(N)Oc1n[nH]c(C)c12 | nt | nt | nt | 0.65 | nt | -4% | nt | 0.7 | 41
CCOC(=O)C1=CCC(C(C)(C)C)N(S(=O)(=O)c2ccc(C)cc2)C1 (centres undefined) | -1 | -19 | -4.0 | nt | i | nt | -2.2 | -1.4 | nt
COc1ccc(OC)c(CCNC(=O)c2ccc(NC3=NC4CS(=O)(=O)CC4S3)cc2)c1 (centres undefined) | -2 | -11 | -2.8 | 0.73 | i | nt | 5.5 | -3.3 | -1
C=C1[C@@H](O)[C@H](Cc2ccccc2)N(Cc2ccccc2Br)S1(=O)=O | -23* | -11* | 4.9* | nt | + | nt | nt | 2.1 | nt
CCOc1ccc(S(=O)(=O)NCCC(=O)OC(C)C(=O)N2CCc3ccccc32)cc1 (centres undefined) | nt | nt | nt | 0.71 | nt | -3% | nt | -0.1 | -6
COCCNC(=O)C[C@H]1CC[C@H]2[C@@H](COc3ccc(NC(=O)C4CCOCC4)cc3C(=O)N2C)O1 | 0 | 3 | 0.3 | nt | i | nt | -0.9 | nt | nt
COc1ccc(NC(=O)CN(C)C(=O)Cc2ccc3c(c2)OCCO3)cc1 | 10 | 6 | 1.7 | 0.71 | i | nt | -1.8 | 2.0 | -2
O=C(CC(c1ccccc1)c1ccccc1O)N1CCCC1 (centres undefined) | -1 | -9 | -2.4 | 0.74 | nt | 4% | nt | 0.6 | 25
CNC(=O)C[C@@H]1CC[C@@H]2[C@H](COc3ccc(NC(=O)Nc4cccc(Cl)c4)cc3C(=O)N2C)O1 | 0 | -14 | 3.3 | nt | i | nt | -0.6 | nt | nt
CCC1CSC(Nc2ccc(C(=O)/C=C/c3ccc(Br)cc3)cc2)=N1 (centres undefined) | -1 | -7 | 14 | 0.71 | i | 32% | 1.8 | 4.4 | -10
O=[N+]([O-])c1cc(/C=N/N2CCN(Cc3ccccc3)CC2)ccc1Cl | nt | nt | nt | nt | nt | 2% | nt | 0.8 | -4
CC1CCCCN1S(=O)(=O)c1ccc(NC(=O)c2cccs2)cc1 (centres undefined) | -14 | -24 | 3.4 | 0.68 | nt | 28% | nt | 1.4 | 0
COC(=O)c1ccc(Cl)c(NC(=O)CN(c2ccc3c(c2)OCO3)S(C)(=O)=O)c1 | nt | nt | nt | 0.72 | nt | 67% | nt | -2.7 | -18
CN(C)N1C(N)=C(C#N)C(c2cccc(Cl)c2)C2=C1CCCC2=O (centres undefined) | 1 | 10 | 2.5 | 0.69 | i | -1% | 7.0 | 7.9 | -5
COCCn1c(-c2ccc(NC(C)=O)cc2)nc2c1c(=O)[nH]c(=O)n2CC(C)C | 3 | 7 | 2.0 | 0.67 | i | nt | -0.4 | 3.5 | nt
NNC(=O)C(=O)Nc1ccc(Cl)c(Cl)c1 | -1 | 9 | 6.7 | 0.69 | i | 22% | 0.1 | -3.4 | -3
CCOc1ccccc1/C=C/c1onc(C)c1S(=O)(=O)N1CCC(C(=O)N(CC)CC)CC1 | -3 | -17 | -0.9 | 0.72 | i | nt | 23 | -2.1 | 0
O=C(CCC1N=C2c3ccccc3N=C(SCc3ccc(Cl)cc3)N2C1=O)NCc1ccco1 (centres undefined) | nt | nt | nt | 0.68 | nt | 6% | nt | -2.9 | 98*
CCSc1nnc(NC(=O)c2ccc3ccccc3n2)s1 | nt | nt | nt | 0.59 | nt | 70% | nt | -3.6 | 3

Compound activity deposited in PubChem BioAssay by several laboratories.
